NS1 inh = blocks influenza NS1 protein function. S. cerevisiae slowed by influenza A NS1, growth recovery by OD600. 0.4% of 270,000 active. Potency, µM (top dose mostly 46.1 µM), inactives show at the top dose activity, positive = more growth. AID 2326; active means well fitted rising curve with a large enough effect; inconclusive means small, poorly fitted or top-dose-only effect; inactive means no such curve, though single readings can be large or run the other way; note: nearly all actives have a fitted effect of over 50% in size
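Read-out: OD600 growth recovery of NS1-expressing budding yeast. Cells grown overnight at 30C in -URA glucose medium, washed, resuspended and diluted 1:100 in 2% galactose assay medium, pH 6.0. Same strain lacking NS1 served as positive control.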
2A StopGo = FMDV 2A StopGo reporter, luciferase signal. human cells with a luciferase reporter of 2A StopGo recoding; control for the full effect not named in the record. Potency, µM (highest dose often 57.9 µM), inactives show top-dose signal change, negative = less light. 1.2% of 410,000 active. AID 1159524; active = well fitted falling curve with a large enough effect; inconclusive = small, poorly fitted or top-dose-only effect; inactive = no such curve, though single readings can be large or run the other way; tested in HEK293T cells; note: % is set by controls: 0 for no effect and ±100 for the full control effect; nearly all actives have a fitted effect of over 45% in size; luciferase light after 4 h
Cruzain inh Det = cruzain (T. cruzi) inhibition with detergent; P25779; purified cruzain, Z-FR-AMC fluorescence, 0.01% Triton; Potency, µM, inactives show max response, negative = inhibition, hits mostly inhibitors; 0.43% of 200,000 active;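 note: plate controls were neutral wells for no effect and buffer without enzyme for full effect; nearly all actives have a fitted effect of over 40% in size; top concentration of the series not given in the record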
Target sequence (P25779 123-467 limits assumed): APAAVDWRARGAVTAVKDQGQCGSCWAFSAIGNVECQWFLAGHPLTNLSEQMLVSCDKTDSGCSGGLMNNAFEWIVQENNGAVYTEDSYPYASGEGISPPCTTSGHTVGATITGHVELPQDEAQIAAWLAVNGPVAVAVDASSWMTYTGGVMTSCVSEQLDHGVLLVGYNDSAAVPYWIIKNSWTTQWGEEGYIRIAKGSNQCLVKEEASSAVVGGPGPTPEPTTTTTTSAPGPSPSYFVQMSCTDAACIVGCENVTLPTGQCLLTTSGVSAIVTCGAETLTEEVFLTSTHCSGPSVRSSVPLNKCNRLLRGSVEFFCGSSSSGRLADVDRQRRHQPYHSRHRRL
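Purified cruzain (1.5 nM final) was preincubated with compounds for 15 min at room temperature in 100 mM sodium acetate pH 5.5, 5 mM DTT, 0.01% Triton X-100. Reaction started with 2 uM Z-FR-AMC; AMC fluorescence change over 60 s gave activity.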
RE007 growth inh = less growth of the S. pombe RE007 Vpr strain | S. pombe RE007 Vpr strain, BacTiter-Glo ATP luminescence, 24 h; control for the full effect not named in the record | Potency, µM (top dose mostly 92.2 µM), without a hit: at the highest dose activity change, negative = less growth | 0.21% of 360,000 active; active = well fitted falling curve with a large enough effect; inconclusive = small, poorly fitted or top-dose-only effect; inactive = no such curve, though single readings can be large or run the other way;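 note: % is set by controls: 0 for no effect and ±100 for the full control effect; nearly all actives have a fitted effect of over 50% in size; the assay follows cell death caused by Vpr and the record does not say whether a fall means rescue or toxicity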
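Fission yeast strain RE007, carrying one chromosomally integrated HIV-1 vpr copy, was seeded at OD 0.01 in PMG+AL medium with 23 nL pinned compound. After 24 h at 30 °C and 99% humidity, viability was read by BacTiter-Glo luminescence.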
SARS PLpro yeast = blocks SARS-CoV papain-like protease in a yeast assay; S. cerevisiae expressing SARS-CoV PLpro, growth rescue; control for the full effect not named in the record; Potency, µM (doses to about 32.9 µM), inactives show top-dose activity, positive = growth rescue; 0.19% of 330,000 active; AID 485353; active means well fitted rising curve with a large enough effect; inconclusive means small, poorly fitted or top-dose-only effect; inactive means no such curve, though single readings can be large or run the other way; note: 0% is about no effect; nearly all actives have a fitted effect of over 55% in size; growth read by luminescence after 48 h
Marburg entry inh = inhibitors of Marburg virus binding or cell entry. Marburg virus pseudotyped entry inhibition, cell reporter; control for the full effect not named in the record; about a third of the inactives were read at about 46 µM. Potency, µM (series often up to 37.8 µM), for inactives: top-dose activity change, negative = inhibition, most hits filed as inhibitors. 1.8% of 300,000 active. AID 540276; active = well fitted inhibition curve with a large enough effect; inconclusive = small, poorly fitted or top-dose-only effect, or effect the other way; inactive = flat fitted curve, though single readings scatter; tested in HEK293 cells; about a fifth of its hits are not listed in these tables; note: % is set by controls: 0 for no effect and ±100 for the full control effect; luciferase read-out
Lassa entry inh = inhibitors of Lassa virus binding or cell entry | Lassa virus pseudotype entry inhibition, cell reporter; control for the full effect not named in the record | Potency, µM (series often up to 37.9 µM), without a hit: at the top dose activity change, negative = inhibition, most hits filed as inhibitors | 1.2% of 300,000 active; active means well fitted inhibition curve with a large enough effect; inconclusive means small, poorly fitted or top-dose-only effect, or effect the other way; inactive means flat fitted curve, though single readings scatter; tested in HEK293 cells; note: % is set by controls: 0 for no effect and ±100 for the full control effect; nearly all actives have a fitted effect of over 50% in size; luciferase read-out
Cruzain noTriton = inhibitors of Trypanosoma cruzi cruzain without detergent. purified cruzain, Z-FR-AMC fluorescence, no detergent. Potency, µM, without a hit: max response, negative = inhibition, actives largely listed as inhibitors. 2.3% of 200,000 active. AID 1476;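 note: plate controls were enzyme without inhibitor for no effect and buffer without enzyme for full effect; nearly all actives have a fitted effect of over 40% in size; top concentration of the series not given in the record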
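Purified cruzain at 1.5 nM, pre-incubated 15 min with compound at room temperature in 100 mM sodium acetate pH 5.5, 5 mM DTT, 0.00005% Triton X-100. Reaction started with 2 uM Z-FR-AMC; AMC fluorescence increase over 60 s gives rate.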
* hit, by the source's call; ? = inconclusive; · = not tested or not shown; & = joins results of further samples; [ ] = remark or other dose. Unless noted, calls come from the whole dose curve; as a rule, active = well fitted curve in the direction sought with a large enough effect; inconclusive = small, poorly fitted or top-dose-only effect, or another doubt; inactive = no such curve, though single readings can be large; an effect the other way counts as inactive or inconclusive. Potency is the fitted concentration of half-maximal effect.

SMILES	NS1 inh	2A StopGo	Cruzain inh Det	RE007 growth inh	SARS PLpro yeast	Marburg entry inh	Lassa entry inh	Cruzain noTriton
CS(=O)(=O)c1ccc(NC(=O)c2cc3c(cc2Cl)N2CCCCCC2=NS3(=O)=O)cc1	·	-4.8%	·	-7.6%	·	?	-5.4%	·
O=C(NC1CCCCC1)c1noc2c1CCCCC2	-9.7%	-7.0%	-0.9%	-25.1%	-1.8%	?	?	2.9%
COCCNC(=O)C(c1ccc(C)o1)N(C(=O)C(=O)NC1CCCCC1)c1ccc(F)cc1 (stereo not drawn)	-3.5%	36.4%	·	-3.6%	-1.2%	16.2%[46.1 µM]	-6.2%[46.1 µM]	·
Cc1nc2c(C(=O)NCCc3ccccc3)c[nH]n2c(=O)c1Cc1ccc(F)cc1Cl	·	-7.1%	-23.5%	·	·	-13.3%[46.1 µM]	20.0%[46.1 µM]	24.5%
COc1ccc(C2CC(=O)c3c(C)nc(N4CCN(C=O)CC4)nc3C2)c(OC)c1 (stereo not drawn)	·	?	-5.8%	·	·	-22.6%[46.1 µM]	-16.3%[46.1 µM]	?
Cc1cc(NS(=O)(=O)c2ccc(NC(=O)/C=C/c3ccccc3Cl)cc2)no1	11.8%	5.3%	·	7.3%	0.8%	8.0%	-20.5%	·
Cn1c(CCNC(=O)OC(C)(C)C)n[nH]c1=S	-4.1%	16.6%	11.3%	0.2%	13.0%	27.1%	?	3.0%
CC(C)NC(=O)Cn1c(=O)cnc2ccccc21	17.6%	-24.5%	-4.4%	-9.4%	-0.5%	17.8%	-2.9%	-8.3%
CCOC(=O)c1c(-c2ccc(C)cc2)csc1NC(=O)c1cc(-c2ccc(C)c(F)c2)on1	·	-9.7%	-1.7%	·	·	8.4%[46.1 µM]	-1.6%[46.1 µM]	1.0%
CSc1ccc(NC(=O)N2CCC(C(=O)c3ccc(F)cc3)CC2)cc1	-1.1%	-16.7%	·	9.6%	-4.8%	-10.8%	-10.6%	·
O=C(Nc1cc(C(F)(F)F)ccc1N1CCOCC1)c1ccc[n+]([O-])c1	4.6%	-20.8%	-2.5%	-1.9%	-2.5%	10.8%	3.7%	-1.0%
CC(=O)Nc1nc(SCCCc2ccccc2)n[nH]1	-13.3%	13.3%	4.4%	8.0%	-2.2%	-0.5%	1.6%	-9.7%
COc1ccc2[nH]cc(CCNC(=O)Cc3ccc(Cl)cc3)c2c1	-4.2%	-21.7%	·	5.4%	1.1%	-17.5%[46.1 µM]	?	·
Cc1occc1-c1nnc(SCC(=O)Nc2ccc3c(c2)OCO3)n1CC1CCCO1 (stereo not drawn)	4.3%	-6.9%	4.3%	2.6%	9.5%	1.2%	1.3%	-4.1%
COc1ccccc1C(=O)COC(=O)CNS(=O)(=O)c1ccc(C)cc1	·	-11.7%	·	19.5%	-0.1%	1.5%	24.7%	·
CCC(=O)c1ccc(OCC(=O)OCC(=O)c2cc(C)n(C3CC3)c2C)cc1	·	-25.5%	·	-15.1%	2.1%	16.6%	18.3%	·
CCOc1cc(-c2noc(-c3cccnc3)n2)ccc1OC	-5.0%	8.7%	-0.4%	9.4%	-3.5%	-3.7%	6.3%	16.6%
CSc1ccc(CNC2CN3CCC2CC3)cc1 (stereo not drawn)	?	·	3.9%	-9.7%	2.2%	?	1.8%	5.6%
Cc1cccc(CCN(CC(=O)NC(C)(C)C)C(=O)c2csnn2)c1	3.1%	13.3%	·	2.1%	1.2%	?	-2.0%	·
CCCS(=O)(=O)N1CCCC(C(=O)NCCN2CCC(Cc3ccccc3)CC2)C1 (stereo not drawn)	-4.0%	?	3.7%	0.4%	5.9%	-15.7%	3.7%	3.8%
FC(F)(F)c1ccccc1NC(=S)N1CCc2ccccc2C1	·	-2.1%	·	1.9%	0.3%	?	?	·
Cc1ccc(C2NC(=O)NC3=C2CCc2ccccc23)cc1 (stereo not drawn)	-8.3%	?	-5.6%	-10.4%	-14.3%	-1.3%&-8.3%	7.0%	-19.2%
O=C1Nc2ccccc2C(=O)C1(Cl)Cc1ccccc1 (stereo not drawn)	-115.9%	?	-2.0%	-2.5%	-23.4%	?	0.5%	3.6%
CN(Cc1cccc(F)c1)C(=O)c1cccc(S(=O)(=O)N2CCN(Cc3ccccc3)CC2)c1	-33.6%	?	·	-13.4%	-0.9%	-20.3%	11.3%	·
CCCn1nnnc1-c1cc(Cl)cc(Cl)c1	4.7%	-13.9%	3.5%	-3.3%	-1.5%	-7.4%	5.1%	-7.3%
CCCCOc1ccc(S(=O)(=O)Nc2ccc(NC(C)=O)cc2)cc1	-5.6%	-22.8%	-8.7%	14.4%	29.3%	-15.8%	-20.4%	-4.7%
CC1(C)Cc2c(sc3nc(-c4ccccc4)n(N)c(=O)c23)CO1	10.7%	-9.7%	2.3%	28.7%	0.4%	?	11.6%	-10.4%
COC(=O)CSc1nnc(-c2ccc(S(=O)(=O)N3CCCC3)cc2)n1C	-6.1%	-4.9%	6.5%	-11.0%	1.7%	-1.0%	2.2%	0.1%
CN(CC(=O)Nc1ccc(F)cc1)C(=O)COC(=O)CSc1ccc(F)cc1	·	1.8%	·	0.2%	6.1%	0.2%	13.9%	·
COCCN1CCN(C(=O)C2CCC(=O)N(Cc3ccc(Cl)cc3)C2)CC1 (stereo not drawn)	-21.4%	-19.4%	·	-6.0%	0.6%	·	·	·
COc1ccccc1CCNC(=O)Cc1c(C)c2ccc(O)cc2oc1=O	·	2.1%	-26.2%	·	·	1.3%[46.1 µM]	4.5%[46.1 µM]	-10.5%
CSCCC(NC(=O)c1ccccc1Cl)C(=O)NCC(c1ccco1)N1CCCCC1 (stereo not drawn)	·	0.3%	·	-10.9%	-0.2%	?	6.4%	·
CC1C(=O)N2CCCc3cc(NC(=O)C(=O)NCc4ccc5c(c4)OCO5)cc1c32 (stereo not drawn)	·	-1.1%	·	3.8%	1.0%	-9.7%	-2.6%[46.1 µM]	·
Cc1ccc(S(=O)(=O)NN2C(=O)/C(=C/c3cccs3)SC2=S)cc1	-19.1%	-1.5%	·	?	-3.0%	·	·	·
O=C(O)c1ccc(Nc2nc3ccccc3nc2NS(=O)(=O)c2ccc(F)cc2)cc1	3.6%	15.6%	·	-9.5%	-8.9%	·	·	·
COC(=O)c1ccc(C(=O)OC)c(NC(=O)CN(C)Cc2cccc(Cl)c2Cl)c1	9.9%	?	-6.8%	11.6%	9.1%	?	17.3%	12.7%
NC(=O)c1cc(S(=O)(=O)NCc2ccc(F)cc2)cs1	-2.2%	32.4%[activator]	·	-19.6%	1.7%	·	·	·
C/C(=N\NC(=O)CNC(=O)C(c1ccccc1)c1ccccc1)c1ccc(C)cc1	-1.3%	·	4.2%	·	2.0%	1.0%	·	12.6µM*
CCOC(=O)C1CCN(C(=O)Nc2ccc3oc(C)nc3c2)CC1	10.1%	·	2.6%	11.3%	0.5%	18.2%	-5.1%	2.2%
CCN(CC)CC(O)CN1C(=O)NC(C)(C)C1=O (stereo not drawn)	-3.1%	-3.0%	·	3.6%	-0.1%	5.1%[46.1 µM]	·	·
Cc1ccc(-c2nnc(N3CCC(C)CC3)c3ccccc23)cc1C	·	20µM*	·	-1.4%	-0.6%	-26.4%[46.1 µM]	3.3%	·
O=C(c1ccc(N2CCCCS2(=O)=O)cc1)N1CCN(c2ccccc2F)CC1	-3.6%	-23.9%	·	4.6%	0.3%	·	·	·
Cc1ccccc1OCC(=O)OCC(=O)Nc1ccc(S(N)(=O)=O)cc1	4.0%	-1.3%	·	1.9%	-0.9%	8.7%[46.1 µM]	2.4%[46.1 µM]	·
Cc1c(C(=O)N2CCOCC2)c(S(=O)(=O)Nc2ccc(C(C)C)cc2)c(C)n1C	-7.1%	38.8%	·	1.2%	12.7%	12.8%[46.1 µM]	-25.3%[46.1 µM]	·
CNC(=S)Nc1cc(C)ccc1OC(F)F	-5.2%	-14.5%	·	7.9%	0.7%	1.0%[46.1 µM]	10.7%[46.1 µM]	·
Cc1cc(C)cc(N(CC(=O)NC2CCCCC2)C(=O)c2csnn2)c1	-2.0%	9.1%	·	-21.0%	-1.5%	-4.3%[46.1 µM]	?	·
Cc1cc(=O)n2[nH]c(C)c(-c3ccc(Cl)cc3)c2n1	4.9%	·	1.5%	12.1%	1.1%	?	?	-3.8%
CCN1CCCC1CNC(=O)C(=O)Nc1ccccc1OC (stereo not drawn)	11.0%	·	3.9%	11.3%	4.2%	-0.6%	7.2%	-10.4%
O=C(O)c1oc2ccccc2c1CSc1ccccn1	1.0%	25.3%	2.2%	15.7%	11.6%	-10.5%	0.7%	-17.2%
Cc1cc(S(=O)(=O)N2CCN(c3ccccc3F)CC2)ccc1-n1cnnn1	-2.1%	?	·	0.3%	-1.7%	?	-1.7%	·
O=C(CSc1nnc(-c2ccccc2)n1-c1ccc(Cl)cc1)N/N=C/c1ccco1	4.8%	?	-6.1%	-24.3%	15.4%	?	?	6.2%
O=C(N/N=C/c1ccc2c(c1)OCO2)c1cc(-c2ccncc2)nc2ccccc12	27.9%	-22.5%	-9.3%	8.1%	-2.0%	?	?	?
O=C(NCCCO)C(=O)NCC(c1ccc2c(c1)OCO2)N1CCOCC1 (stereo not drawn)	·	3.3%	0.3%	·	·	·	19.7%[46.1 µM]	-14.7%
O=C(CCCSc1nc2ccccc2c(=O)[nH]1)c1ccc(F)cc1	·	?	·	-8.2%	4.4%	?	?	·
COc1ccccc1OCC(=O)Nc1ccc(S(=O)(=O)Nc2nccs2)cc1	3.6%	0.0%	·	2.2%	-1.5%	-4.9%[46.1 µM]	-2.7%	·
O=C(NNc1c([N+](=O)[O-])cc(C(F)(F)F)cc1[N+](=O)[O-])c1ccco1	-19.6%	31.6µM*	·	?	-3.7%	·	·	·

Assay outcomes deposited in PubChem BioAssay by National Center for Advancing Translational Sciences (NCATS).
